Bioassay records as filed in PubChem BioAssay.
Bead autofluor = flagged as autofluorescent in microsphere protease counterscreen | fluorescence intensity (concentration not given with the values) | 360,000 compounds, 3.1% hits | compound autofluorescence counterscreen, microsphere flow cytometry; active compounds read high | AID 624483;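 active = at least 3 SD above the mean of all compounds, about 16000 in these data; inconclusive = too few beads counted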;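 note: 100 nL of 1 mM stock went into each well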
Sa RN4220 lethal = kills Staphylococcus aureus RN4220; S. aureus RN4220 growth, OD600, 16 h; inhibition, % (no concentration beside the values); 330,000 compounds, 0.33% hits; AID 1259311;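 active = z-score of -3 or lower and OD600 up to 0.18 on both plates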;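 note: plate controls were untreated cells for no effect and reference antibiotic for full effect; stock transfer was 100 nL into about 80 µL; one replicate is shown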
Sa ugtP lethal = growth inhibition of S. aureus ugtP deletion strain; S. aureus RN4220 ugtP deletion, OD600 growth, 16 h; some inactives read as strong as hits; growth inhibition, % (concentration not given with the values); 330,000 compounds, 0.54% hits; AID 1259309;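 active = z-score under -3 and OD600 up to 0.15 on both plates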;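 note: plate controls were untreated wells for no effect and antibiotic for full effect; wells of about 80 µL received 100 nL stock; the first replicate is given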
PrP 5UTR inh = inhibition of PrP 5' UTR reporter expression. cell-based PrP 5' UTR mRNA reporter, plate reader. inhibition, % (no concentration beside the values). 340,000 compounds, 0.35% hits. AID 488862;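 active = every replicate at 50% or more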;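 note: 0 = median of the neutral control wells; tested in H4 reporter cells; numbers are from one replicate; inactives centre near -14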
Mtb hypoxia inh = reduces hypoxia-regulated biosensor signal in M. tuberculosis; M. tuberculosis hypoxia-regulated fluorescent reporter, fluorescence; fluorescence inhibition, % (no concentration beside the values); 300,000 compounds, 0.1% hits; AID 1159583;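 active = 35 to 45% if threefold the growth effect, above 45% if 1.5-fold the growth effect; inactive = the rest, general growth blockers included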;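 note: wells of about 50 µL received 100 nL stock; 0% = vehicle wells and 100% = reference inhibitor wells; whole bacteria with a GFP reporter of the hypoxia response; strong numbers were not always called active; many hits fall short of the cut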
BJeLR viability = BJeLR cell viability loss; BJeLR (HRASV12) viability, CellTiter-Glo ATP luminescence, 48 h; reference of the scale not given here; inhibition, % (test concentration not listed); 300,000 compounds, 0.17% hits; AID 1554;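 active = replicate mean above 50%; inconclusive = above 50% but judged a plate artefact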;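 note: 50 nL library stock added to about 25 µL; numbers are from one replicate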
Mtb hypoxia inh growth = recorded beside Mtb hypoxia inh, whose call it bears; growth inhibition, %; measured here: M. tuberculosis growth (absorbance);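 0% = vehicle and 100% = reference antibiotic; read after six days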
* = called active by the depositor.

For COc1ccc(N2C(=O)C3CCCN3C2c2ccc(C)o2)cc1Cl (configuration not stated) the results were Bead autofluor 4250, Sa RN4220 lethal 1.6, Sa ugtP lethal -3, PrP 5UTR inh -12, Mtb hypoxia inh 1, BJeLR viability 1 and Mtb hypoxia inh growth 13.
For CC(C)CNC(=O)CN(c1ccccc1)S(=O)(=O)c1ccccc1[N+](=O)[O-] the results were Bead autofluor 3852, PrP 5UTR inh -10 and BJeLR viability -3.
Screening CN(C)CCCNCCCCNC(=O)/C=N/O returned Bead autofluor 3372, PrP 5UTR inh -26 and BJeLR viability 4.
For CCOC(=O)Cc1csc(NC(=O)Nc2ccc(OC(F)(F)F)cc2)n1 the results were Bead autofluor 4478, Sa RN4220 lethal 3.3, Sa ugtP lethal -22, PrP 5UTR inh -38, Mtb hypoxia inh 15, BJeLR viability -12 and Mtb hypoxia inh growth -1.
`O=C1NC(NS(=O)(=O)c2ccc(Cl)cc2)(C(F)(F)F)C(=O)N1CCc1ccccc1` (configuration not stated) gave Sa RN4220 lethal 0.9, Sa ugtP lethal -9, Mtb hypoxia inh 0, BJeLR viability 3 and Mtb hypoxia inh growth -3.
For CCCn1nnnc1SCC(=O)c1ccc(NC(C)=O)cc1 the results were Bead autofluor 4026, Sa RN4220 lethal 5.0, Sa ugtP lethal 5, PrP 5UTR inh -34 and BJeLR viability 6.
`c1ccc(Nc2ccc(-n3ccnc3)nn2)cc1` gave Bead autofluor 5104, Sa RN4220 lethal 8.0, Sa ugtP lethal 13, PrP 5UTR inh -16, Mtb hypoxia inh -6, BJeLR viability 2 and Mtb hypoxia inh growth -5.
Cc1ccccc1-n1ncc2c1CC(C)(C)CC2NC(=O)CCC1=NNC(=O)CC1 (configuration not stated) was read as Bead autofluor 5853, Sa RN4220 lethal 1.6, Sa ugtP lethal 4, PrP 5UTR inh -6, Mtb hypoxia inh -3, BJeLR viability 0 and Mtb hypoxia inh growth 4.
Screening COCCNC(=O)C1Cc2cc(S(=O)(=O)N3CCCC3)ccc2N1C(C)=O (configuration not stated) returned Bead autofluor 5793, Sa RN4220 lethal -2.5, Sa ugtP lethal -2, PrP 5UTR inh 3, Mtb hypoxia inh -5, BJeLR viability -6 and Mtb hypoxia inh growth -2.
Screening COc1ccc(CC(=O)N/N=C(\C)c2cccnc2)cc1OC returned Bead autofluor 4385, PrP 5UTR inh 0 and BJeLR viability 0.
COP1(=O)C[C@@H](O)[C@@H](O)[C@@H](COCc2ccccc2)O1 (some centres not stated) was read as Bead autofluor 4211, PrP 5UTR inh -19 and BJeLR viability -4.
`O=C(N[C@@H](c1ccccc1)[C@@H]1C[C@H]1C(=O)O)OCc1ccccc1` gave Bead autofluor 3755, PrP 5UTR inh -4 and BJeLR viability -4.
`Fc1cc(F)c(F)c(SCn2cc(Br)cn2)c1F` gave Bead autofluor inconclusive, Sa RN4220 lethal 4.1, Sa ugtP lethal 0, PrP 5UTR inh -8, Mtb hypoxia inh 7 and Mtb hypoxia inh growth 10.
Screening CN(C)c1ccc(NS(=O)(=O)c2ccc(-c3csnn3)cc2)cc1 returned Sa RN4220 lethal -2.1, Sa ugtP lethal -6, Mtb hypoxia inh -2, BJeLR viability -1 and Mtb hypoxia inh growth -1.
`CN(CC(=O)NCc1ccccn1)S(=O)(=O)c1ccc(F)cc1` gave Bead autofluor 4555, Sa RN4220 lethal 5.9, Sa ugtP lethal 1, PrP 5UTR inh -12, Mtb hypoxia inh 10, BJeLR viability -1 and Mtb hypoxia inh growth 2.
For CSc1ccc(C=Nn2c(Cc3ccc(Br)cc3)n[nH]c2=S)cc1 the results were Sa RN4220 lethal 6.5, Sa ugtP lethal 16, Mtb hypoxia inh 1 and Mtb hypoxia inh growth -2.
`COc1ccc(OCCc2nnc(N)s2)cc1` gave Bead autofluor 3581, Sa RN4220 lethal 6.9, Sa ugtP lethal -5, PrP 5UTR inh -16, Mtb hypoxia inh 15, BJeLR viability -2 and Mtb hypoxia inh growth 14.
COc1ccc(OCCN(C)Cc2c(O)ccc3ccccc23)cc1 was read as Bead autofluor 3454, Sa RN4220 lethal 0.8, Sa ugtP lethal 2, PrP 5UTR inh -13, Mtb hypoxia inh 0, BJeLR viability -1 and Mtb hypoxia inh growth -7.
`Cc1cc(C)c(C)c(S(=O)(=O)N2CCN(C(=O)c3cc(=O)[nH]c4ccccc34)CC2)c1C` gave Bead autofluor 20107*, Sa RN4220 lethal -0.3, Sa ugtP lethal -14, PrP 5UTR inh 7, Mtb hypoxia inh -6, BJeLR viability -4 and Mtb hypoxia inh growth 12.
Screening COCCCN(C(=O)Cc1ccc(S(=O)(=O)N2CCOCC2)s1)c1c(N)n(Cc2ccccc2)c(=O)[nH]c1=O returned Bead autofluor 3870, Sa RN4220 lethal 6.2, Sa ugtP lethal 1, PrP 5UTR inh -42, Mtb hypoxia inh 13 and Mtb hypoxia inh growth 9.
For O=C(NCc1ccccc1)c1cnc(-c2ccccn2)nc1C(F)(F)F the results were Bead autofluor 3187, Sa RN4220 lethal 1.4, Sa ugtP lethal -4, PrP 5UTR inh -17 and BJeLR viability -4.
`COc1ccc(OC)c(CCNC(=O)CCn2nc(C)c3c(C)n(-c4ccccc4)nc3c2=O)c1` gave Bead autofluor 6076, Sa RN4220 lethal 1.5, Sa ugtP lethal 3, PrP 5UTR inh -3, Mtb hypoxia inh 16, BJeLR viability -3 and Mtb hypoxia inh growth 8.
O=c1[nH]n(-c2ccccc2)c(=O)cc1Cl was read as Bead autofluor 3278, Sa RN4220 lethal -0.8, Sa ugtP lethal 2, PrP 5UTR inh -20, Mtb hypoxia inh 19 and Mtb hypoxia inh growth 13.
CC(=O)N1C(=O)NC(c2ccccc2)=C([N+](=O)[O-])C1c1ccccc1 (configuration not stated) was read as Bead autofluor 3574, Sa RN4220 lethal 3.7, Sa ugtP lethal 5, PrP 5UTR inh -28, Mtb hypoxia inh 3, BJeLR viability 0 and Mtb hypoxia inh growth 2.
For O=C(O)c1ccccc1SCc1ccc2c(c1)OCO2 the results were Bead autofluor 2801, Sa RN4220 lethal 1.8, Sa ugtP lethal -6, PrP 5UTR inh -7 and BJeLR viability -4.
For COc1ccc(NC(=O)CN(C)S(=O)(=O)c2ccc3c(c2)CCCN3C(C)=O)cc1 the results were Bead autofluor 5733, Sa RN4220 lethal 1.6, Sa ugtP lethal 1, PrP 5UTR inh -20, Mtb hypoxia inh 1, BJeLR viability 10 and Mtb hypoxia inh growth 1.
`CCC(=O)Nc1nc2c(s1)COc1ccccc1-2` gave Bead autofluor 4423, Sa RN4220 lethal -1.4, Sa ugtP lethal 1, PrP 5UTR inh -23, Mtb hypoxia inh 0, BJeLR viability -8 and Mtb hypoxia inh growth -10.
CN1/C(=C\P(=O)(N(C)C)N(C)C)C(C)(C)c2ccccc21 was read as Bead autofluor 6518, Sa RN4220 lethal 6.5, Sa ugtP lethal 8, PrP 5UTR inh 1, Mtb hypoxia inh 12, BJeLR viability -8 and Mtb hypoxia inh growth 1.
Screening COc1cc(C(=O)OCC(=O)c2ccc(S(=O)(=O)N3CCCCC3)cc2)cc(OC)c1OC returned Bead autofluor 3989, Sa RN4220 lethal -5.0, Sa ugtP lethal -3, PrP 5UTR inh -17, Mtb hypoxia inh -2 and Mtb hypoxia inh growth 1.
For O=C(N/C(=C/c1ccc(F)cc1)C(=O)N1CCOCC1)c1ccccc1 the results were Bead autofluor 30895*, Sa RN4220 lethal -1.0, Sa ugtP lethal -3, PrP 5UTR inh 5, Mtb hypoxia inh -7, BJeLR viability 3 and Mtb hypoxia inh growth 0.

Entries shown so far containing an NH in an aromatic ring, in the order listed:
For CSc1ccc(C=Nn2c(Cc3ccc(Br)cc3)n[nH]c2=S)cc1 the results were Sa RN4220 lethal 6.5, Sa ugtP lethal 16, Mtb hypoxia inh 1 and Mtb hypoxia inh growth -2.
`Cc1cc(C)c(C)c(S(=O)(=O)N2CCN(C(=O)c3cc(=O)[nH]c4ccccc34)CC2)c1C` gave Bead autofluor 20107*, Sa RN4220 lethal -0.3, Sa ugtP lethal -14, PrP 5UTR inh 7, Mtb hypoxia inh -6, BJeLR viability -4 and Mtb hypoxia inh growth 12.
Screening COCCCN(C(=O)Cc1ccc(S(=O)(=O)N2CCOCC2)s1)c1c(N)n(Cc2ccccc2)c(=O)[nH]c1=O returned Bead autofluor 3870, Sa RN4220 lethal 6.2, Sa ugtP lethal 1, PrP 5UTR inh -42, Mtb hypoxia inh 13 and Mtb hypoxia inh growth 9.
O=c1[nH]n(-c2ccccc2)c(=O)cc1Cl was read as Bead autofluor 3278, Sa RN4220 lethal -0.8, Sa ugtP lethal 2, PrP 5UTR inh -20, Mtb hypoxia inh 19 and Mtb hypoxia inh growth 13.

(next part)
`COc1ccc(N2CC(C(=O)NCCC3=CCCCC3)CC2=O)c(OC)c1` (configuration not stated) gave Bead autofluor inconclusive, Sa RN4220 lethal 2.2, Sa ugtP lethal 3, PrP 5UTR inh -14, Mtb hypoxia inh 7, BJeLR viability 5 and Mtb hypoxia inh growth 7.
Screening O=C(C1CCCN(c2ncnc3c2nc2n3CCCCC2)C1)N1CCN(c2ccccc2)CC1 (configuration not stated) returned Bead autofluor 5366, Sa RN4220 lethal 0.7, Sa ugtP lethal 4, PrP 5UTR inh -16, Mtb hypoxia inh 6, BJeLR viability -9 and Mtb hypoxia inh growth 17.
CCOc1cccc(-c2cc(-c3n[nH]c(=S)n3CC)c3ccccc3n2)c1 was read as Bead autofluor 15745, Sa RN4220 lethal 4.8, Sa ugtP lethal 2, PrP 5UTR inh -30, Mtb hypoxia inh -1, BJeLR viability 14 and Mtb hypoxia inh growth -1.
CCOC(=O)c1c(NC(=O)COC(=O)c2ncc(Cl)c(Cl)c2Cl)sc(C(=O)N(C)C)c1C was read as Bead autofluor 5267, Sa RN4220 lethal 0.7, Sa ugtP lethal 5, PrP 5UTR inh -2, Mtb hypoxia inh 13, BJeLR viability -3 and Mtb hypoxia inh growth -1.
`CCCc1cc(C(=O)Nc2ccc(F)c(Cl)c2)no1` gave Bead autofluor 4016, Sa RN4220 lethal 0.5, Sa ugtP lethal 9, PrP 5UTR inh -10, Mtb hypoxia inh -6, BJeLR viability 4 and Mtb hypoxia inh growth -3.
Screening CCNc1nc(N)c(C(=O)c2ccc(Cl)s2)s1 returned Bead autofluor 4557, Sa RN4220 lethal 0.9, Sa ugtP lethal -12, PrP 5UTR inh -50 and BJeLR viability -2.
Screening Nc1ccc(Oc2ccc(Br)cc2)cc1 returned Bead autofluor 9638, Sa RN4220 lethal 6.1, Sa ugtP lethal 26, PrP 5UTR inh -12, Mtb hypoxia inh 4, BJeLR viability 4 and Mtb hypoxia inh growth 1.
CCOC(=O)N1CCN(C(=O)/C(=C/c2ccccc2OC)NC(=O)c2ccccc2)CC1 was read as Bead autofluor 16214*, Sa RN4220 lethal 3.7, Sa ugtP lethal 2, PrP 5UTR inh -19, Mtb hypoxia inh 8, BJeLR viability 3 and Mtb hypoxia inh growth 2.
Screening c1ccc(Sc2ncccn2)nc1 returned Bead autofluor 4849, Sa RN4220 lethal 5.3, Sa ugtP lethal 11, PrP 5UTR inh -5, Mtb hypoxia inh 6, BJeLR viability 2 and Mtb hypoxia inh growth 6.
`CCN1CCCC1CNC(=O)c1cn(CC)c2ccc(S(=O)(=O)N3CCCCCC3)cc2c1=O` (configuration not stated) gave Sa RN4220 lethal -17, Sa ugtP lethal -7, Mtb hypoxia inh 3, BJeLR viability -21 and Mtb hypoxia inh growth 11.
For COc1ccc(CCNc2ccc([N+](=O)[O-])cn2)cc1 the results were Bead autofluor 3490, Sa RN4220 lethal 1.6, Sa ugtP lethal -1, PrP 5UTR inh -3, Mtb hypoxia inh -5, BJeLR viability 13 and Mtb hypoxia inh growth 6.
Screening CCN(CC(=O)Nc1c(F)cccc1F)C(=O)CCN1C(=O)C2CC=CCC2C1=O (configuration not stated) returned Bead autofluor 5847, Sa RN4220 lethal 4.9, Sa ugtP lethal 4, PrP 5UTR inh -21, Mtb hypoxia inh 15, BJeLR viability -1 and Mtb hypoxia inh growth 2.
Screening S=C(c1ccc2c(c1)OCO2)N1CCCCC1 returned Bead autofluor 3161, Sa RN4220 lethal -4.4, Sa ugtP lethal -9, PrP 5UTR inh -9, Mtb hypoxia inh 10, BJeLR viability -10 and Mtb hypoxia inh growth 6.
Screening Cc1ccc(C(=O)Nc2ccc(SC(F)F)cc2)s1 returned Bead autofluor 3084, Sa RN4220 lethal 1.9, Sa ugtP lethal -12, PrP 5UTR inh -90, Mtb hypoxia inh -3, BJeLR viability 9 and Mtb hypoxia inh growth 1.
